Screening results deposited in PubChem BioAssay by The Scripps Research Institute Molecular Screening Center.
OX1R FRET antag: OX1R (human) antagonism | OX1R-expressing cells, FRET antagonist read-out | 330,000 compounds, 1.8% hits | inhibition, % at 6.6 µM | O43613 | AID 485270; in the data active = inhibition mostly above about 38%, no sharp cut-off; inactive = mostly below about 40%;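 also: 0% = agonist challenge alone and 100% = reference antagonist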
Target sequence (O43613 whole entry, looked up): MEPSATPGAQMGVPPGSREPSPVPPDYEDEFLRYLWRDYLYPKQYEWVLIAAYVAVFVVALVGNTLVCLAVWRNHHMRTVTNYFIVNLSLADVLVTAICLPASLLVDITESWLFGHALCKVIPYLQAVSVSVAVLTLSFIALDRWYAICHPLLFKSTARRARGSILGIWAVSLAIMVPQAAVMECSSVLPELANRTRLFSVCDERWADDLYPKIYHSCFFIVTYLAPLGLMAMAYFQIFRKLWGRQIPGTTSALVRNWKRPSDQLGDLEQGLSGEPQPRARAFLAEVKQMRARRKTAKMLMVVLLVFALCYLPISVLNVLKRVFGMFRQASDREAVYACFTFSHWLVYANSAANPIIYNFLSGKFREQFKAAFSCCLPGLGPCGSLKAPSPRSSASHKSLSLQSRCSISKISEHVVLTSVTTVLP
* marks the source's active call; other numbers are inactive results. A portion of the library; most or all hits stand in other tables.

SMILES	OX1R FRET antag
O=S(=O)(c1cccc(-c2nc3ccccc3s2)c1)N1CCCC1	11
CCCCCCNc1cc2n(c(=O)n1)CCc1cc(OC)c(OC)cc1-2	33
CCOCN(C(=O)Cn1c(COC)nc2ccccc21)c1c(C)cccc1CC	14
CCCCC1(CCCC)NC(=S)N(Nc2ccc(C)cc2)C1=O	11
CCOC(=O)C1CCN(CC(=O)NC(=O)NC2CCCCC2)CC1	8
CNCc1ccccc1Sc1cccc(O)c1	9
Cc1cc(OCCOc2cccc3cccnc23)c(C)cc1Cl	5
O=C(O)C1C2C=CC(C2)C1C(=O)NC(c1ccccc1)c1ccccc1 (stereo not drawn)	6
COc1cccc(CN2CCNC(=O)C2CC(=O)NCc2cn3ccccc3n2)c1OC (stereo not drawn)	7
C(=N\c1nccs1)/Nc1nccs1	8
Cc1noc(NS(=O)(=O)c2ccc(NC(=O)/C=C/c3ccc(C(C)C)cc3)cc2)c1C	22
O=[N+]([O-])c1cc(-c2csc(NC(CO)c3nc4ccccc4n3CCOCCO)n2)ccc1Cl (stereo not drawn)	9
Cc1ccc(CNC(=O)C(C)OC(=O)c2ccco2)cc1 (stereo not drawn)	1
N#C/C(=C\c1ccco1)c1nc2ccccc2s1	57
Cc1ccc(C(=O)Nc2ccc(CN3CCS(=O)(=O)CC3)cc2)cc1C	16
COc1ccccc1-n1c(C)nc2cc(C(=O)NCc3ccc4c(c3)OCO4)ccc21	13
CCCCNC(=S)NCc1ccc2c(c1)cc(C)n2C	14
CO/N=C(/CS(=O)Cc1ccc(Cl)cc1)c1ccc(Cl)cc1 (stereo not drawn)	7
Cc1ccc(S(=O)(=O)N2CCC(C(=O)N3Cc4ccccc4C3)CC2)cc1	16
O=C1c2ccccc2C(=O)N1C(CO)C(O)c1ccc([N+](=O)[O-])cc1 (stereo not drawn)	26
CCOC(CNC(=O)c1ccc2nc(N3CCC(C)CC3)sc2c1)OCC	17
COc1ccc(-n2c(SCC(=O)NC3CC3)nc3ccccc3c2=O)cc1OC	1
Cc1c(Cl)cccc1N1C(=O)CC(NNC(=O)c2cccs2)C1=O (stereo not drawn)	17
Cc1ccc(S(=O)(=O)N(Cc2ccc(C(F)(F)F)cc2)C(=O)N2CCN(C)CC2)cc1	24
COc1cc(C(=O)NCc2ccc3[nH]c(C)cc3c2)cc(OC)c1OC	15
CN1C(=O)C(C)(C)c2cc(S(=O)(=O)N3CCCC(C(=O)NCc4ccc(Cl)cc4)C3)ccc21 (stereo not drawn)	6
Cc1nc2ncnn2c(C)c1CCC(=O)Nc1ccc(S(=O)(=O)N2CCCCCC2)cc1	11
CCCN(CCC)C(=O)c1cc(-c2ccc3c(c2)OCO3)nc2ccccc12	28
CC1CCN(C(=S)NC(=O)C2CCCCC2)CC1	14
C/C(=N\Nc1cc(C)nc(-c2ccccc2)n1)c1cccc([N+](=O)[O-])c1	29
OC[C@H]1O[C@@H](Oc2ccc3cc(Br)ccc3c2)[C@H](O)[C@@H](O)[C@H]1O	3
CSc1ncccc1C(=O)OCC(=O)C(C)(C)C	-8
O=c1c(-c2ccccc2)c(O)cc(-c2ccncc2)n1-c1ccc(Cl)cc1	4
CC1CCCN(C(=O)Cn2nnc(-c3ccc(F)cc3)n2)C1 (stereo not drawn)	10
CCOc1ccc(S(=O)(=O)NCCCn2ccnc2)cc1NC(C)=O	8
Cc1nc2nc(C)c(CCC(=O)Nc3ccc4c(c3)OCO4)c(C)n2n1	7
CN1CCN(C(=O)C2=C[C@@H](c3ccccc3)C[C@@H](OCCCCO)O2)CC1	15
COC(=O)CCSc1cc([N+](=O)[O-])cc2c1c(C1OCCO1)nn2-c1ccccc1	34
Cc1c(CN(C)C)c2c(n1Cc1ccccc1)C(=O)c1ccccc1-2	58
O=C(NCC1CCCO1)C(c1cccs1)N(C(=O)Cn1nnc(-c2cccs2)n1)C1CCCC1 (stereo not drawn)	49
Cc1cc(NC(=O)CN2C(=O)c3ccccc3S2(=O)=O)no1	17
Cc1ccccc1SC1CCN(C(=O)C2CCC(=O)N(C3CC3)C2)CC1 (stereo not drawn)	4
S=c1[nH]nc(-c2ccco2)n1C1CCCCC1	14
COc1ccccc1NC(=O)Cn1nnc(C(=O)Nc2ccccc2)c1N	14
CCCCCCCNC(=O)C1(CC2CC(c3cccc(Br)c3)=NO2)CCN(C(=O)C2(C)CC2)CC1 (stereo not drawn)	49

The final 2 records of the section before come first, to join the parts.
SMILES	OX1R FRET antag
COc1ccccc1NC(=O)Cn1nnc(C(=O)Nc2ccccc2)c1N	14
CCCCCCCNC(=O)C1(CC2CC(c3cccc(Br)c3)=NO2)CCN(C(=O)C2(C)CC2)CC1 (stereo not drawn)	49
CCN1CCN(c2ccc(S(=O)(=O)N3CCCCC3)cc2NC(=O)Cc2ccc(OC)cc2)CC1	25
Cc1ccc(S(=O)(=O)Nc2nc3n(n2)C(c2ccc(Cl)cc2)CC(=O)N3)cc1 (stereo not drawn)	10
CC1CC(C)CN(C(=O)COC(=O)CCC(=O)c2cccs2)C1 (stereo not drawn)	19
COc1cc(NC(=O)C2CC(=O)NC3=C2C(=O)CCC3)cc(OC)c1 (stereo not drawn)	8
CCCCCN(C(=O)CCC(=O)OCc1ccccc1Cl)c1c(N)n(CCCC)c(=O)[nH]c1=O	2
CCOc1ccc(NC(=O)c2cc(Cl)nc3ccccc23)cc1	17
COc1cc(/C=C/CO)ccc1O[C@@H]1O[C@H](CO)[C@@H](O)[C@H](O)[C@H]1O	17
CCCCOc1ccc(N(CC(=O)NC2CCCC2)C(=O)CCC(=O)Nc2ccccn2)cc1	11
Cc1cc(C)nc(NC2=NCC(=O)N2c2ccccc2)n1	12
CCOC(=O)C1=CC[C@@H](c2cc3ccc(OC)cc3n2C)N(S(=O)(=O)c2ccc(C)cc2)[C@H]1C(=O)OCC	1
Cc1ccc(NC(=O)c2cnn(-c3ccccc3)c2C)cc1	3
Cc1csc(NC(=O)NCC2CCCC(CNC(=O)Nc3nc(C)cs3)C2)n1 (stereo not drawn)	33
O=S(=O)(/C=C/c1ccccc1)N1CCOCC1	4
COc1ccc(CC(=O)OCC(=O)NC2CC2)cc1	4
COc1ccc(N2CC(C(=O)Nc3ccc(N4CCOCC4)cc3)CC2=O)cc1 (stereo not drawn)	6
O=C(O)Cn1nnnc1-c1ccc(F)cc1	0
CN1C(=O)c2oc3ccccc3c(=O)c2C1c1cccnc1 (stereo not drawn)	26
CN1CCN(C(=O)C23CC4CC(C2)CC(c2ccccc2)(C4)C3)CC1	8
O=c1cc(O)c2c(=O)n(-c3ccccc3)c3ccccc3c2o1	9
Cc1nn(-c2ccc(F)cc2)c(C)c1CN1CCN(CCc2ccccc2)C(CCO)C1 (stereo not drawn)	10
Cc1cc(C(=O)C(C)Cl)c(C)n1Cc1ccco1 (stereo not drawn)	0
Cc1cccc(NC(=O)C2SC(=Nc3c(C)cccc3C)C(C(=O)N3CCOCC3)=C2N)c1 (stereo not drawn)	23
CC(C)N1CCc2[nH]c(=S)[nH]c(=O)c2C1	9
CCCNC(=S)N1CCC(C(=O)c2ccc(OC)cc2)CC1	9
O=C1NC(c2ccc(Cl)cc2Cl)Oc2ccccc21 (stereo not drawn)	3
Cc1cccc(OC(=O)C2C(c3ccccc3)C(C(=O)O)C2c2ccccc2)c1 (stereo not drawn)	11
O=C(NCc1nc2ccccc2[nH]1)C1=C[C@@H](c2csc3ccccc23)C[C@@H](OCCCCO)O1	26
O=C(N/N=C\c1ccc(F)cc1)c1ccc(Cn2cc(Br)c([N+](=O)[O-])n2)o1	47
COc1cc2c(c(OC)c1OC)-c1c(cc3c(c1OC)OCO3)C[C@H](C)[C@@](C)(O)C2	9
CCC(CC)C(=O)NN(C(=O)c1ccncc1)C1CC(=O)N(c2ccccc2)C1=O (stereo not drawn)	0
Cc1ccc(NC2CCCN(C(=O)Cc3nonc3C)C2)cc1C (stereo not drawn)	21
O=C(NC1CCCc2ccccc21)C1CCN(c2c3c(nc4ncnn24)CCC3)CC1 (stereo not drawn)	3
c1ccn2cc(C34CC5CC(CC(C5)C3)C4)nc2c1	22
CC(C)Nc1nc2nonc2nc1Nc1ccccc1	10
CN(C)S(=O)(=O)c1cccc(C(=O)NCCOC(=O)c2cc(F)c(F)cc2Cl)c1	27
O=C1O/C(=C/C(=O)N2CCOCC2)c2ccccc21	12
Cc1ccccc1NC(=O)NC1CCCCC1C (stereo not drawn)	11
CCOCCCNC(=O)c1ccc(CS(=O)(=O)Cc2ccc(C)cc2)o1	8
CC(C)N(Cc1nc(-c2ccc3c(c2)OCO3)no1)CC1CCC(=O)N1 (stereo not drawn)	8
Cc1ccc(NC(=O)CNC(=O)c2ccc(Oc3ccccc3)cc2)nc1	0
COC(=O)c1ccc2c(c1)C(=O)N(C1CCCCC1)C2=O	9
CCCCNC(=O)C1CCN(Cc2ccc(OCc3ccccc3)cc2)CC1	8
O=C(O)c1ccc(CSc2nc3ccccc3c(=O)n2-c2ccccc2)cc1	16
O=C(Cc1c(F)cccc1Cl)N(Cc1ccccc1)c1ccccn1	12
CCOC(=O)N1CCN(C(=O)c2cc(S(=O)(=O)N3CCc4ccccc43)ccc2OC)CC1	23
COc1cc(C(=O)NC(=S)Nc2ccc3c(c2)OCO3)cc(OC)c1OC	0
CCC(=O)NC(=S)Nc1ccc(NC(=O)COc2ccccc2)cc1	13
CCOc1ccc(NC(=O)C2C(C(=O)O)C3(Cl)C(Cl)=C(Cl)C2(Cl)C3(Cl)Cl)cc1 (stereo not drawn)	17
CCCC(=O)Nc1cc(C(=O)O)ccc1Sc1ccc(C)cc1	21
O=C(NCc1ccco1)c1cc2sccc2n1Cc1ccc(F)cc1	19
COC(=O)c1cc(N=C(N)N=C(N)N)cc(C(=O)OC)c1	8
O=C(NN1CCOCC1)c1ccc(Cl)c(Cl)c1	7
Cc1c(Cl)cccc1NC(=S)N(CCCN1CCOCC1)Cc1cccs1	23
COc1ccc(CNC(=S)Nc2ccc3nc(N4CCN(C)CC4)cc(C)c3c2)cc1	8
CCOC(=O)C1=C(C)N(C)C(C)=C(C(=O)OCC)C1c1ccc(C(=O)OC)cc1	9
Clc1ccc(-c2nnc(CSc3nnc(-c4cccs4)o3)o2)cc1	13
CCc1c(C(=O)NNC(=S)NCC(C)C)csc1C	11
O=C(NCCc1c[nH]c2ccccc12)c1cncc(Br)c1	28
CCN(Cc1ccccc1)S(=O)(=O)CCNC(=O)c1ccccc1	3
CN(C)c1ccc(C(CNC(=O)c2ccccc2F)c2c[nH]c3ccccc23)cc1 (stereo not drawn)	15

Next entries.
SMILES	OX1R FRET antag
COc1ccc(-c2cc(C(F)(F)F)nc(SCc3cccc(C(=O)O)c3)n2)cc1	10
O=C(Nc1nnc(Cc2ccc([N+](=O)[O-])cc2)s1)Nc1ccccc1F	3
COC(=O)N/N=C/c1cc(Cl)cc(Cl)c1OCc1ccc(F)cc1	4
COc1cc2ccccc2cc1C(=O)O	3
O=C(COc1ccccc1)N(Cc1cccc(F)c1)C1CCS(=O)(=O)C1 (stereo not drawn)	9
Cc1c(N=C2SCC(=O)N2c2c(C)n(C)n(-c3ccccc3)c2=O)c(=O)n(-c2ccccc2)n1C	1
CCn1c(O)c(C=NCCN2CCOCC2)sc1=S	39
CC(=O)C1=C(O)C(=O)N(c2ccc(O)cc2)C1c1ccccc1 (stereo not drawn)	15
COc1ccccc1-c1c(NC(=O)C(C)C)n(C)c2ccccc2c1=O	10
O=C(NC1CC1)C1CCN(c2ncccn2)CC1	11
COCCn1c(-c2ccccc2)nc2oc3ccccc3c(=O)c2c1=O	14
CCOC(=O)c1ccc(NC(=O)CSc2nnc(COc3ccccc3OC)n2C)cc1	3
O=C(C1CCN(S(=O)(=O)c2ccc(Cl)cc2)CC1)N1CCC1	17
CC(C)C(NS(=O)(=O)c1cccs1)C(=O)NCc1ccccc1 (stereo not drawn)	16
CCOC(=O)CCCNC(=O)CCNC(=O)c1ccc(OC)cc1	4

Reprinted from the results shown for reference:
SMILES	OX1R FRET antag
O=C(NCc1ccco1)c1cc2sccc2n1Cc1ccc(F)cc1	19
COC(=O)c1cc(N=C(N)N=C(N)N)cc(C(=O)OC)c1	8
O=C(NN1CCOCC1)c1ccc(Cl)c(Cl)c1	7
Cc1c(Cl)cccc1NC(=S)N(CCCN1CCOCC1)Cc1cccs1	23
COc1ccc(CNC(=S)Nc2ccc3nc(N4CCN(C)CC4)cc(C)c3c2)cc1	8
CCOC(=O)C1=C(C)N(C)C(C)=C(C(=O)OCC)C1c1ccc(C(=O)OC)cc1	9
Clc1ccc(-c2nnc(CSc3nnc(-c4cccs4)o3)o2)cc1	13
CCc1c(C(=O)NNC(=S)NCC(C)C)csc1C	11
O=C(NCCc1c[nH]c2ccccc12)c1cncc(Br)c1	28
CCN(Cc1ccccc1)S(=O)(=O)CCNC(=O)c1ccccc1	3
CN(C)c1ccc(C(CNC(=O)c2ccccc2F)c2c[nH]c3ccccc23)cc1 (stereo not drawn)	15
COc1ccc(-c2cc(C(F)(F)F)nc(SCc3cccc(C(=O)O)c3)n2)cc1	10
O=C(Nc1nnc(Cc2ccc([N+](=O)[O-])cc2)s1)Nc1ccccc1F	3
COC(=O)N/N=C/c1cc(Cl)cc(Cl)c1OCc1ccc(F)cc1	4
COc1cc2ccccc2cc1C(=O)O	3
O=C(COc1ccccc1)N(Cc1cccc(F)c1)C1CCS(=O)(=O)C1 (stereo not drawn)	9
Cc1c(N=C2SCC(=O)N2c2c(C)n(C)n(-c3ccccc3)c2=O)c(=O)n(-c2ccccc2)n1C	1
CCn1c(O)c(C=NCCN2CCOCC2)sc1=S	39
CC(=O)C1=C(O)C(=O)N(c2ccc(O)cc2)C1c1ccccc1 (stereo not drawn)	15
COc1ccccc1-c1c(NC(=O)C(C)C)n(C)c2ccccc2c1=O	10
O=C(NC1CC1)C1CCN(c2ncccn2)CC1	11
COCCn1c(-c2ccccc2)nc2oc3ccccc3c(=O)c2c1=O	14
CCOC(=O)c1ccc(NC(=O)CSc2nnc(COc3ccccc3OC)n2C)cc1	3
O=C(C1CCN(S(=O)(=O)c2ccc(Cl)cc2)CC1)N1CCC1	17

Following part
SMILES	OX1R FRET antag
CCOC(=O)C(=O)N1CCC(C(=O)OC)CC1	21
Cc1ccccc1Cn1ccc(NC(=O)c2nc3ncccn3n2)n1	16
O=[N+]([O-])c1ccccc1S(=O)(=O)N1CCN(c2ccccc2)CC1	5
CC(C)=C1SC(N2CCN(c3cccc(C)c3)CC2)=NC1=O	1
COc1ccc(C(=O)NNC(=S)NC(=O)c2ccccc2)cc1	8
